# RecA intein inh = Mtb RecA intein splicing inhibitors, primary screen, biochemical, fluorescence, HTS; Protein RecA (Mycobacterium tuberculosis (strain ATCC 25618 / H37Rv)), P9WHJ3; cell-free RecA intein splicing; inhibition, %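 (about 9 µM by stock and volumes)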; 0.75% of 290,000 active; AID 2221, 2009; in the data active means inhibition above about 30%; inconclusive means no clear call, values can overlap the other calls;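 further: 0% = vehicle wells and 100% = reference inhibitor control wells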
# Target sequence (P9WHJ3 whole entry, looked up): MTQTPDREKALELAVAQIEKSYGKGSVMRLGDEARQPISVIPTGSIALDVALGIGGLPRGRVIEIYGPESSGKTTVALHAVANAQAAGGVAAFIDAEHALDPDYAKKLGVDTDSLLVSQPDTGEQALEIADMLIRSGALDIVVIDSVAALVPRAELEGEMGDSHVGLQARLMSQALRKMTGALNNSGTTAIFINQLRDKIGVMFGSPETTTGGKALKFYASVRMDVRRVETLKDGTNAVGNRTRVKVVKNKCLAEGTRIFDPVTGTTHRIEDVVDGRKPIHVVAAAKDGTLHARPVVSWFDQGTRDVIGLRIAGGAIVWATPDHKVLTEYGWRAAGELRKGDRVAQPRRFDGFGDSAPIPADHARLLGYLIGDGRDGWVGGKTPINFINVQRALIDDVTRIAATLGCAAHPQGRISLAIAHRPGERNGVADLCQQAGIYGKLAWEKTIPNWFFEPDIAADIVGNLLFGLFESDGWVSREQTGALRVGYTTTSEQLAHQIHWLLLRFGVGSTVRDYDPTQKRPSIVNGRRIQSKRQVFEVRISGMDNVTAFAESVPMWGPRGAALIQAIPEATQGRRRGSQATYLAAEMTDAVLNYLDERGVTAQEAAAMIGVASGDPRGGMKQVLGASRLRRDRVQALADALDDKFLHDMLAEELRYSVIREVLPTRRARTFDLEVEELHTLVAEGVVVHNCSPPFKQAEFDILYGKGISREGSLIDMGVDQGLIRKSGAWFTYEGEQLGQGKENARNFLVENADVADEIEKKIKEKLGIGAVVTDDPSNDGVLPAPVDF
# YopH PTP inh = YopH tyrosine phosphatase inhibitors, primary screen, biochemical, fluorescence Ex485/Em525 | 0.16% of 140,000 active | AID 898, 2007 | YopH tyrosine phosphatase [Yersinia enterocolitica] | inhibition, %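 (about 10 µM by stock and volumes)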;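 active means inhibition of 50% or more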;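 further: controls were vehicle for no effect and minimum signal wells for full effect; inactives centre near -20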
# Mtb growth = M. tuberculosis H37Rv growth inhibitors, H37Rv strain (AID 1626); M. tuberculosis H37Rv growth inhibition; higher % means a stronger effect; inhibition, % at 10 µM; hits with a dose series show IC50 in µM; 0.95% of 220,000 active;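 active means confirmed in a dose series; inconclusive means inhibition above 80% but not taken into the dose series; inactive means below 80% or under 30% at every dose of the series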;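 further: bacteria incubated seven days before Alamar blue readout; 0% = bacteria only wells and 100% = bacteria with antibiotic wells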
# Mtb betalactam = beta-lactam sensitization of Mtb H37Rv, H37Rv; AID 434955, 2010; M. tuberculosis H37Rv growth with meropenem, percent inhibition; hits of this screen are not shown here; 0.27% of 330,000 active; inhibition, % at 25 µM;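 active means about 74% or more and at least 40 points above the plate without the antibiotic, then above 30% in a dose series; inconclusive means first-round hits that could not be retested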;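 further: growth measured after seven days incubation then overnight dye step; 0% = bacteria only wells and 100% = bacteria with antibiotic; twin plates without the antibiotic show which effects depend on it; some results filed as inactive read as strong as hits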
# Arbovirus inh = antivirals against arbovirus infection, primary screen, cell-based, full library, 10K replicate subset. inhibition, % at 10 µM. AID 1251, 2008. 0.37% of 200,000 active. arbovirus infection cell-based antiviral screen;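 active means inhibition from about 30%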;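 further: bluetongue infection of BSR cells; cell survival read as ATP light after 72 h; 0% = infected wells without compound and 100% = uninfected wells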
# Arbovirus inh repeat = further read-out of Arbovirus inh, marked with its call; inhibition, %; measured here: 10K subset replicate screen; many hits read low in the repeat;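 first of two repeat runs on a subset; 0% = infected and 100% = uninfected wells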
# * = called active by the depositor; ? = inconclusive; · = not tested or not shown. This is a subset (hit frequency here may not be typical).
SMILES,RecA intein inh,YopH PTP inh,Mtb growth,Mtb betalactam,Arbovirus inh,others
Cc1ccc(NS(=O)(=O)c2ccc3[nH]c(=O)c(=O)[nH]c3c2)cc1Cl,3.1,·,-0.1%,-1.4,-3.5,
COc1cc(/C=N/Nc2ccc([N+](=O)[O-])cc2S(=O)(=O)N2CCOCC2)cc(OC)c1OC,-1.9,-11.9,2.7%,0.8,-9.1,
C=CCn1c(C)cc(C(=O)COc2ccc(S(=O)(=O)N3CCCC3)cc2[N+](=O)[O-])c1C,-3.5,-2.7,3.6%,-3.3,5.0,
Cn1c(SCc2ccccc2F)nc2cccnc21,2.5,-33.1,-3.3%,2.0,-6.3,
COCc1[nH]nc2c1C(c1ccnc3ccccc13)C(C#N)=C(N)O2 (configuration not stated),7.3,-44.5,-4.6%,-6.4,-1.9,
Cc1ccc(NC(=O)CSc2ncn[nH]2)cc1S(=O)(=O)N1CCOCC1,4.8,·,-6.4%,-0.6,-0.9,
Cc1ccc(-c2nnc(CCC(=O)N(C)Cc3nccs3)o2)s1,-0.7,·,3.6%,0.9,-2.3,
COc1ccccc1NC(=O)c1cc2c(s1)-c1ccccc1S(=O)(=O)C2,-1.2,·,-2.5%,-0.6,·,
CCN(C(C)=O)c1cccc(-c2ccnc3c(C#N)cnn23)c1,·,·,3.6%,·,0.9,
O=C(CN1CCN(S(=O)(=O)c2ccc(Cl)cc2)CC1)Nc1ccc(F)cc1F,1.2,-11.7,6.4%,3.3,5.3,
O=C1c2ccccc2C(=O)N1n1c(=O)[nH]c2ccccc2c1=O,-1.6,-12.1,-2.4%,?,-7.2,
Nc1cc(=O)[nH]c(=S)n1-c1cccc(C(F)(F)F)c1,1.6,-38.1,-1.4%,-8.4,11.2,
COc1ccc(N(C(=O)Cc2cccs2)C(C(=O)NC2CCCCC2)c2cccn2C)cc1 (configuration not stated),-1.8,3.4,-6.4%,-9.3,2.8,
CCOC(=O)C1CCN(C(=O)COc2ccc(N(C)S(=O)(=O)c3ccc(C)cc3)cc2)CC1,-1.8,·,-8.0%,-17.8,12.1,
Cc1cccc(-c2ocnc2C(=O)Nc2ccccc2NC(=O)c2ccccn2)c1,15.9,·,·,0.1,·,
Cc1ccc(CNC(=O)C2CCCN2C(=O)Nc2ccccc2)cc1 (configuration not stated),1.5,·,·,-9.7,·,
O=C(CSc1nnc(NC(=O)c2ccccc2[N+](=O)[O-])s1)NC1CCCC1,-1.1,·,·,?,·,
CC(C)c1nc2sc3c(=O)[nH]c(=S)[nH]c3c2c2c1CCC2,-6.3,-28.2,-17.5%,·,-3.6,
CC1(C)Cc2c(C#N)c(N3CCN(C(=O)c4ccccc4Cl)CC3)nc(-c3ccco3)c2CS1,12.1,-17.0,13.0%,0.5,-6.5,
COc1ccc(C(C)NC(=O)C2CCCC2)cc1 (configuration not stated),2.2,·,·,1.7,·,

# Overlap with the part before: 2 entries, followed by the next part.
SMILES,RecA intein inh,YopH PTP inh,Mtb growth,Mtb betalactam,Arbovirus inh,others
CC1(C)Cc2c(C#N)c(N3CCN(C(=O)c4ccccc4Cl)CC3)nc(-c3ccco3)c2CS1,12.1,-17.0,13.0%,0.5,-6.5,
COc1ccc(C(C)NC(=O)C2CCCC2)cc1 (configuration not stated),2.2,·,·,1.7,·,
C#CCOCCOCCOCCNc1nc(N2CCN(C(=O)[C@H](C)n3cc(CCCN=C(N)N)nn3)CC2)nc(N2CCN(C(=O)[C@H](C)n3cc(CCCN=C(N)N)nn3)CC2)n1,2.2,-30.3,-3.6%,-13.7,-8.9,
CCNC(=O)c1sc2cc(C)ccc2c1Cl,1.3,·,0.0%,3.1,-3.6,
COC(=O)c1cn(NC(=O)/C=C/c2ccc(OC)c(OC)c2)c(=O)c2ccccc12,-1.9,-9.6,-0.8%,-1.5,-1.5,
C=CCOc1cccc(C2C(C(=O)c3ccco3)=C(O)C(=O)N2CCN2CCOCC2)c1 (configuration not stated),0.7,-26.7,1.9%,-5.9,0.3,Arbovirus inh repeat=3.4
Cc1onc(-c2ccccc2Cl)c1C(=O)NCCn1ccc2ccccc21,3.9,-42.2,2.1%,-0.4,-1.2,
O=C(NCC1CC1)Nc1ccccc1,0.0,·,·,-0.7,·,
CCN(CC)c1ccc(/C=N/n2c(-c3ccccc3Br)n[nH]c2=S)cc1,-1.7,·,1.3%,-13.1,·,
O=C(c1cccc(S(=O)(=O)N2CCCCC2)c1)N1CCCCC1,·,-30.7,1.3%,-14.0,5.7,
CN1CCN(C(=O)c2ccc(-c3nn(C)c(=O)c4ccccc34)cc2)CC1,0.1,19.5,-6.1%,3.1,·,
O=C(c1ccco1)N1CCN(c2cc(=O)n(C3CCCCC3)c(=O)[nH]2)CC1,-2.1,-2.2,-1.1%,-7.6,-4.5,
COc1cc(SC)ccc1C(=O)Nc1nc2ccccc2[nH]1,2.2,·,·,64.8,·,
CSC(=S)N/N=C/c1c[nH]c2ccccc12,-1.7,-35.0,?,97.1,-18.1,
N#Cc1ccccc1CSc1ccc(-c2nc3ccccc3[nH]2)cn1,0.1,-35.0,3.8%,25.8,-6.1,
COc1cccc(NC(=O)C2CC(=O)N(C)C(=Nc3cccc(F)c3)S2)c1 (configuration not stated),6.3,-0.9,-2.6%,-2.0,3.9,
CN=C1S/C(=C\c2cccn2-c2cccc(Br)c2)C(=O)N1C,-2.4,-17.1,0.4%,0.3,·,
O=C(NC(=S)Nc1ccc2nc[nH]c2c1)c1ccccc1,3.6,·,·,-16.2,·,
O=C1ON=C(c2ccccc2)/C1=C/c1ccc(-c2ccccc2[N+](=O)[O-])o1,·,-16.2,6.9%,0.4,-35.2,
Cc1cccc(N=Nc2c(C)[nH]n(-c3ccccc3)c2=O)c1,1.8,·,-3.1%,1.9,-1.8,
CC1(C(=O)NNC(=S)NCC2CCCO2)CC1(Cl)Cl (configuration not stated),0.4,·,·,0.2,·,
COc1cccc(C(=O)NCC(c2ccc3c(c2)OCO3)N2CCN(c3ccc(F)cc3)CC2)c1 (configuration not stated),7.6,·,·,-7.6,·,

# In the list so far, 5 have fluorine.
SMILES,RecA intein inh,YopH PTP inh,Mtb growth,Mtb betalactam,Arbovirus inh,others
Cn1c(SCc2ccccc2F)nc2cccnc21,2.5,-33.1,-3.3%,2.0,-6.3,
O=C(CN1CCN(S(=O)(=O)c2ccc(Cl)cc2)CC1)Nc1ccc(F)cc1F,1.2,-11.7,6.4%,3.3,5.3,
Nc1cc(=O)[nH]c(=S)n1-c1cccc(C(F)(F)F)c1,1.6,-38.1,-1.4%,-8.4,11.2,
COc1cccc(NC(=O)C2CC(=O)N(C)C(=Nc3cccc(F)c3)S2)c1 (configuration not stated),6.3,-0.9,-2.6%,-2.0,3.9,
COc1cccc(C(=O)NCC(c2ccc3c(c2)OCO3)N2CCN(c3ccc(F)cc3)CC2)c1 (configuration not stated),7.6,·,·,-7.6,·,

# Next entries.
SMILES,RecA intein inh,YopH PTP inh,Mtb growth,Mtb betalactam,Arbovirus inh,others
Cc1noc(C)c1CSCC(=O)Nc1ccc(S(=O)(=O)C(F)F)cc1,-4.8,·,·,-0.8,·,
CCOC(=O)c1sc(NN=C(C(=O)OC)C(=O)OC)c(C(=O)OCC)c1C,-2.5,-16.4,13.8%,2.7,19.2,
CCN(CC)C(=O)c1sc2nc(N3CCOCC3)c3c(c2c1N)CCCC3,-0.1,9.3,-6.9%,2.2,-6.5,
O=C(Nc1ccc(Cl)cc1Cl)c1ccc(-c2ccccc2)cc1,5.4,-11.1,2.8%,1.4,-0.9,
CCOC(=O)c1ccc(NCn2c(=O)oc3ccccc32)cc1,-2.1,-41.9,?,98.1,-16.0,Arbovirus inh repeat=-10.4
COc1ccc(C2=NCC(=S)Nc3ccc(Cl)cc32)cc1Cl,-2.5,·,6.6%,11.0,-4.0,
Cc1cc(Cl)ccc1C(=O)C1CCCN(C(=O)c2cncs2)C1 (configuration not stated),1.8,·,·,2.6,·,
Cc1nn(-c2ccccc2)c(C)c1/C=N/NC(=O)CSc1nc2ccccc2c(=O)n1-c1ccccc1,-2.3,-14.1,?,91.7,-38.7,
O=C(Nc1ccccc1C(=O)NCc1ccccc1)C1=CSCCO1,0.3,·,·,-7.1,·,
COc1ccc2c(c1)/C(=N/N1C(=O)c3ccccc3C1=O)C(=O)N2,0.8,·,2.4%,0.5,7.9,
Cc1ccc(C(=O)NC(=S)Nc2cccnc2Cl)cc1,-0.1,·,·,5.6,·,
C=CCSc1nnc(CSc2nc3sc4c(c3c(=O)[nH]2)CCCC4)n1-c1ccccc1,14.0,-36.8,-7.5%,·,-11.5,Arbovirus inh repeat=-17.9
CCOc1cccc(-c2c(C(=O)N/N=C/c3cccs3)nnn2-c2nonc2N)c1,-3.1,·,·,2.6,·,
COC(=O)c1ccc(NS(=O)(=O)c2c(C)[nH]c(C)c2C(=O)N2CCCC2)cc1,0.8,·,·,2.7,·,
COc1ccc(CN2CCN(C(=O)CC(C)C)CC2)cc1,-1.3,·,·,0.9,·,
Cn1c(N2CCCCC2)nc2c1c(=O)[nH]c(=O)n2C,·,-34.4,-0.2%,-2.0,-0.9,
O=C(c1ccccc1)c1ccc(C(=O)N2CCCC(C(F)(F)F)C2)cc1 (configuration not stated),2.8,·,·,-16.3,·,
Cc1csc2ncnc(N3CCN(C(=S)Nc4ccc(F)cc4F)CC3)c12,1.7,·,-4.9%,-2.3,·,
CCCc1nc2ccccc2c(=O)n1/N=C/c1ccccc1O,-0.1,-37.1,6.4%,-6.3,-27.5,
NC(=O)C(=O)N/N=C/c1c2ccccc2cc2ccccc12,-10.7,·,·,-10.3,·,
CCOC(=O)c1c(NC(=O)CSc2nnc(-c3ccccc3C)n2C)sc(C(C)=O)c1C,3.0,-44.2,-12.2%,-2.4,14.2,
Cc1ccc(/C=C2\SC(=S)N(CCCC(=O)NNC(=O)c3ccccc3O)C2=O)cc1,2.1,·,7.4%,-2.5,·,
CCOC(=O)CSc1n[nH]c(NC(=O)c2cccc(C)c2)n1,·,4.8,-2.6%,4.9,5.7,
CN1CCN(C(=O)C(N)Cc2ccccc2)CC1 (configuration not stated),0.2,·,1.3%,4.2,17.1,
CCc1ccc(C(=O)CSc2n[nH]c(C)n2)cc1,-0.5,-3.3,2.5%,5.9,-0.5,
Cc1cccc(NC(=O)COc2ccc3oc4c(c3c2)CCCC4)n1,3.5,-9.1,32.5%,93.8,8.7,
O=C(NCc1cc(C(F)(F)F)cc(C(F)(F)F)c1)C1CC(c2cccc(F)c2)=NO1 (configuration not stated),-1.2,·,0.7%,-0.6,·,
O=C(/C=C/Nc1ccc(F)c(F)c1)c1cccs1,-5.8,-17.2,0.2%,-5.1,1.9,
CCC(COC(=O)NC)NC(=O)Oc1cccc(C)c1 (configuration not stated),1.5,0.5,-6.0%,-3.0,5.1,
CCN1C(=O)[C@H]2[C@@H](c3ccc(-c4cccc(Cl)c4)cc3)N3CCCC[C@@]3(C(=O)OC)[C@H]2C1=O,3.0,·,·,-4.2,·,
O=C(c1ccccc1)N(Cc1ccc2c(c1)OCO2)Cc1nc2ccccc2c(=O)[nH]1,1.3,-57.1,-2.3%,-7.5,-2.2,
CCOC(=O)c1cc(C#N)c(N2CCN(c3ccccn3)CC2)nc1-c1ccccc1,-1.4,·,21.2%,-0.2,2.6,
COc1ccccc1Oc1nc2c(c(=O)n(Cc3ccccc3F)c(=O)n2C)n1C,20.0,-12.2,-10.9%,-6.5,-14.6,
O=[N+]([O-])c1ccccc1-c1nc(-c2ccc(Br)o2)no1,-7.4,-9.4,7.4%,-1.1,-1.6,
COc1cccc(/C(C)=N/NC(=O)c2ccc(N(C)C)cc2)c1,-1.1,-22.6,·,-4.8,-7.4,
CC(CCc1ccccc1)NC(=O)c1ccc(NC(=O)c2ccc(Cl)cc2Cl)cc1 (configuration not stated),0.4,-25.9,19.6%,5.7,0.0,
CC(C)(C)c1csc(NC(=O)c2ccc3nccnc3c2)n1,2.0,-4.6,13.5%,77.8,12.9,
CCC(C)(C)n1nnnc1C(c1ccc(OC)c(OC)c1)N1CCN(C(=O)c2ccco2)CC1 (configuration not stated),-5.6,·,·,1.9,·,
COc1ccc(C(C)(C)C)cc1NC(=O)COC(=O)c1ncc(Cl)c(Cl)c1Cl,16.6,-5.1,-2.3%,4.5,-2.1,
CCOc1ccc(C2N(c3ccc(F)cc3)C(=O)C3CCCN32)cc1OC (configuration not stated),0.0,-26.2,0.7%,-4.8,4.4,
COc1ccccc1N(CC(=O)NCC1CCCO1)C(=O)CNS(=O)(=O)c1ccc(C)cc1 (configuration not stated),-0.8,-13.7,4.4%,-4.1,2.8,
CC(C)(C)N1Cc2ccccc2C1=N,0.7,-17.9,-13.7%,?,0.3,
